Compound activity: PubChem, National Center for Advancing Translational Sciences (NCATS)
Cruzain inh noDet – qHTS Assay for Promiscuous and Specific Inhibitors of Cruzain (without detergent); Cruzipain (Trypanosoma cruzi), P25779; purified cruzain, Z-FR-AMC fluorescence, no detergent; Potency, µM, for inactives: max response, negative = inhibition, most hits filed as inhibitors; 200,000 compounds, 2.3% hits;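 also: plate controls were enzyme without inhibitor for no effect and buffer without enzyme for full effect; nearly all actives have a fitted effect of over 40% in size; top concentration of the series not given in the record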
Target sequence (P25779 123-467 limits assumed): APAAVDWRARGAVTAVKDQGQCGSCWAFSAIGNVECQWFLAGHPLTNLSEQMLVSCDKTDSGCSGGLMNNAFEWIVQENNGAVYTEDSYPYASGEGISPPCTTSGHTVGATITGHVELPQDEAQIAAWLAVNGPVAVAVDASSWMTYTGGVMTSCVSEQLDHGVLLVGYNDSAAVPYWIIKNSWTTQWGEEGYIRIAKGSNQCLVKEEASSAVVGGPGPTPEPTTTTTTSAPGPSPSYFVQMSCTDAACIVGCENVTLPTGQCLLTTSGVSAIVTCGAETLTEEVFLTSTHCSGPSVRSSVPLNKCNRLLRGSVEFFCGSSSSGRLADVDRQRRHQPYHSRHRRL
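Detergent-free condition (0.00005% Triton X-100) in acetate buffer pH 5.5 with DTT. 1.5 nM enzyme and compound were pre-mixed 15 min, then 2 uM Z-FR-AMC substrate added; reaction progress from fluorescence change between first and third reads (60 s).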
RE007 growth inh – qHTS Assay for Inhibitors of the HIV-1 protein Vpr; Potency, µM (doses to about 92.2 µM), for the others: at the top dose activity change, negative = less growth; 360,000 compounds, 0.21% hits; S. pombe RE007 Vpr strain, BacTiter-Glo ATP luminescence, 24 h; control for the full effect not named in the record; active = well fitted falling curve with a large enough effect; inconclusive = small, poorly fitted or top-dose-only effect; inactive = no such curve, though single readings can be large or run the other way;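 also: % is scaled to controls: 0 for no effect and ±100 for the full control effect; nearly all actives have a fitted effect of over 50% in size; the assay follows cell death caused by Vpr and the record does not say whether a fall means rescue or toxicity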
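Fission yeast RE007 carrying one integrated HIV-1 vpr copy, seeded at OD 0.01 in PMG+AL medium with 23 nL pinned compound. Grown 24 h at 30 degrees; viability read by BacTiter-Glo luminescence after 5 min.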
SARS PLP yeast – qHTS of Yeast-based Assay for SARS-CoV PLP; Potency, µM (top dose mostly 32.9 µM), inactives show top-dose activity, positive = growth rescue; AID 485353, 2010; 330,000 compounds, 0.19% hits; S. cerevisiae expressing SARS-CoV PLpro, growth rescue; control for the full effect not named in the record; active means well fitted rising curve with a large enough effect; inconclusive means small, poorly fitted or top-dose-only effect; inactive means no such curve, though single readings can be large or run the other way; also: 0% is about no effect; nearly all actives have a fitted effect of over 55% in size; growth read by luminescence after 48 h
MARV entry inh – qHTS for inhibitors of binding or entry into cells for Marburg Virus; Marburg virus pseudotyped entry inhibition, cell reporter; control for the full effect not named in the record; about a third of the inactives were read at about 46 µM; Potency, µM (doses to about 37.8 µM), for the others: at the top dose activity change, negative = inhibition, actives largely listed as inhibitors; 300,000 compounds, 1.8% hits; AID 540276, 2011; active = well fitted inhibition curve with a large enough effect; inconclusive = small, poorly fitted or top-dose-only effect, or effect the other way; inactive = flat fitted curve, though single readings scatter; tested in HEK293 cells; about a fifth of its hits are not listed in these tables; also: % is scaled to controls: 0 for no effect and ±100 for the full control effect; luciferase read-out
Lassa entry inh – qHTS for Inhibitors of binding or entry into cells for Lassa Virus. Lassa virus pseudotype entry inhibition, cell reporter; control for the full effect not named in the record. Potency, µM (series often up to 37.9 µM), without a hit: at the top dose activity change, negative = inhibition, actives largely listed as inhibitors. 300,000 compounds, 1.2% hits; active means well fitted inhibition curve with a large enough effect; inconclusive means small, poorly fitted or top-dose-only effect, or effect the other way; inactive means flat fitted curve, though single readings scatter; tested in HEK293 cells; also: % is scaled to controls: 0 for no effect and ±100 for the full control effect; nearly all actives have a fitted effect of over 50% in size; luciferase read-out
NS1 function inh – qHTS Assay for Inhibitors of Influenza NS1 Protein Function. S. cerevisiae slowed by influenza A NS1, growth recovery by OD600. 270,000 compounds, 0.4% hits. AID 2326, 2010. Potency, µM (doses to about 46.1 µM), for inactives: at the top dose activity, positive = more growth; active means well fitted rising curve with a large enough effect; inconclusive means small, poorly fitted or top-dose-only effect; inactive means no such curve, though single readings can be large or run the other way; also: nearly all actives have a fitted effect of over 50% in size
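Read-out: OD600 growth recovery of NS1-expressing budding yeast. Cells grown overnight at 30C in -URA glucose medium, washed, resuspended and diluted 1:100 in 2% galactose assay medium, pH 6.0. Same strain lacking NS1 served as positive control.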
StopGo reporter – High Throughput Screening for Foot and Mouth Disease Virus Antivirals; human cells with a luciferase reporter of 2A StopGo recoding; control for the full effect not named in the record; Potency, µM (highest dose often 57.9 µM), inactives show top-dose signal change, negative = less light; 410,000 compounds, 1.2% hits; active = well fitted falling curve with a large enough effect; inconclusive = small, poorly fitted or top-dose-only effect; inactive = no such curve, though single readings can be large or run the other way; tested in HEK293T cells; also: % is scaled to controls: 0 for no effect and ±100 for the full control effect; nearly all actives have a fitted effect of over 45% in size; luciferase light after 4 h
Cruzain Triton – qHTS Assay for Promiscuous and Specific Inhibitors of Cruzain (with detergent). Potency, µM, without a hit: max response, negative = inhibition, usual class: inhibitors. AID 1478, 2009. purified cruzain, Z-FR-AMC fluorescence, 0.01% Triton. 200,000 compounds, 0.43% hits;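 also: plate controls were neutral wells for no effect and buffer without enzyme for full effect; nearly all actives have a fitted effect of over 40% in size; top concentration of the series not given in the record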
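Enzyme 1.5 nM, Z-FR-AMC 2 uM, NaOAc 100 mM pH 5.5, DTT 5 mM, Triton X-100 0.01%; 15 min RT compound preincubation; kinetic ex360/em450, 60 s delta.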
Starred values were filed as active, the others as inactive; u = inconclusive; x = not tested or not shown; & = joins results of further samples; [ ] = remark or other dose. Unless noted, calls follow the shape of the dose curve; as a rule, active = well fitted curve in the direction sought with a large enough effect; inconclusive = small, poorly fitted or top-dose-only effect, or another doubt; inactive = no such curve, though single readings can be large; an effect the other way counts as inactive or inconclusive. Potency is read from the fitted curve at half-maximal effect.

SMILES	Cruzain inh noDet	RE007 growth inh	SARS PLP yeast	MARV entry inh	Lassa entry inh	NS1 function inh	StopGo reporter	Cruzain Triton
CCn1cc(Cl)c(C(=O)NNC(=O)CCn2cc([N+](=O)[O-])cn2)n1	8%	x	-13%	-2%	1%	12%	-17%	0.0%
O=C(NCc1c(Cl)cccc1Oc1ccccc1)c1ccccc1	x	5%	0%	0%[46.1 µM]	1%	3%	-8%	x
Cc1ccc(C)c(NC(=O)CN(C)S(=O)(=O)c2ccccc2)c1	-13%	11%	1%	-10%	0%	-4%	-1%	10%
COc1cccc(-c2nn(-c3ccccc3)cc2CN(C)Cc2c(C)nc3ccccn23)c1	x	5%	0%	x	x	-5%	-9%	x
CCc1ccc(NC(=O)c2cc3c(COC(C)=O)cnc(C)c3oc2=O)cc1	7%	x	x	x	18%[46.1 µM]	x	u	0.4%
Cc1ccc(NC(=O)CCSc2nnc(-c3ccco3)o2)cc1	-3%	-10%	-6%	-13%	5%	-10%	-11%	-2.7%
CCC(C)(C)C1CCC2(CC1)NC(=O)N(CC(=O)N(C)Cc1ccc(OC(F)F)cc1)C2=O (centres undefined)	x	4%	3%	-17%[46.1 µM]	0%	x	u	x
Cc1ccc(S(=O)(=O)Nc2ccc(S(=O)(=O)Nc3nccs3)cc2)c([N+](=O)[O-])c1	x	1%	-5%	x	x	-17%	22%	x
O=C(NCC1CCCO1)C(=O)N/N=C/c1cc(Cl)ccc1O (centres undefined)	x	-17%	0%	u	u	-2%	-8%	x
CCCNC(=O)COc1ccc(S(=O)(=O)Nc2ccc(C)cc2)cc1	10%	-4%	10%	-28%	-13%	2%	0%	6.4%
O=C(COC(=O)c1ncc(Cl)c(Cl)c1Cl)NCCc1ccccc1	x	4%	0%	6%	-1%	x	-5%	x
CCOc1ccc(NC(=O)CSc2nc(=O)n(Cc3cccnc3)c3c2CCC3)cc1	x	0%	5%	u	23%	x	0%	x
Cc1ccc2scc(N3CCN(c4ccc(F)cc4)CC3)c(=O)c2c1	4%	x	x	x	-14%[46.1 µM]	x	4%	-6.1%
COc1cccc(C(C(=O)NC(C)(C)C)N(Cc2ccc(C)cc2)C(=O)CCC(=O)Nc2cc(C)on2)c1OC (centres undefined)	x	1%	-2%	u	u	6%	u	x
COc1cccc(CN2CCNC(=O)C2CC(=O)N(C)CCC2CCOCC2)c1 (centres undefined)	x	-3%	-4%	x	x	-7%	-5%	x
Cc1cc(=O)oc2c3c(cc(OCC(=O)N[C@@H](CC(C)C)C(=O)O)c12)OC(C)(C)CC3	x	4%	0%	-29%	u	0%	11%	x
Cc1oc2ncnc(N)c2c1C	-4%	-11%	-1%	-20%	-3%	-11%	-8%	6.0%
COc1cc(NC(=O)c2nn(C)c3c2CS(=O)(=O)c2ccccc2-3)cc(OC)c1	u	16%	-2%	6%&6%[46.1 µM]	-3%[46.1 µM]	-7%	-13%&-5%	-4.3%
COc1ccc(CNC(=O)CCCNC(=O)c2ccc(Cl)cc2)cc1OC	x	15%	1%	1%[46.1 µM]	0%[46.1 µM]	-2%	-12%	x
CC(C)N1CCc2c(sc(NC(=O)c3ccc(S(=O)(=O)N(C)C4CCCCC4)cc3)c2C(N)=O)C1	-1%	x	x	x	u	x	8%	-0.4%
Cc1c(C(=O)N2CCN(S(=O)(=O)c3ccccc3)CC2)oc2ccccc12	x	1%	0%	u	3%	x	-17%	x
COc1ccc(C2(CCN)CC(C)N(C)CC2C)cc1 (centres undefined)	-5%	0%	4%	u	12%	6%	-13%	5.9%
COCCNC(=O)C(c1ccccc1)N(C(=O)Cn1nnc2ccccc21)c1cccnc1 (centres undefined)	-8%	3%	3%	-7%[46.1 µM]	u	-1%	-5%	5.5%
O=C(c1ccco1)N1CCN(Cc2nnc(-c3cccc(Br)c3)o2)CC1	x	12%	-3%	9%[46.1 µM]	-26%	-19%	-19%	x
CC(C)c1ccc(N(CC(=O)NC2CCCC2)C(=O)CCC(=O)Nc2ccccn2)cc1	x	14%	7%	-3%[46.1 µM]	u	9%	15%	x
SMILES	Cruzain inh noDet	RE007 growth inh	SARS PLP yeast	MARV entry inh	Lassa entry inh	NS1 function inh	StopGo reporter	Cruzain Triton
CC1CCC(NC(=O)c2ccc3c(c2)N(Cc2ccccc2F)C(=O)c2ccccc2S3)CC1 (centres undefined)	u	x	x	x	u	x	29%	-1.9%
Cc1ccc(C)c(CN2C(=O)c3ccccc3Sc3ccc(C(=O)NCc4ccc5c(c4)OCO5)cc32)c1	20µM*	x	x	x	-22%[46.1 µM]	x	27%	-0.9%
COc1ccccc1/C=C/c1nc(C#N)c(N2CCCCC2)o1	-1%	x	x	-29%[46.1 µM]	u	x	11%	-25%
CCOc1ccc(N2CC(C(=O)Nc3ccccc3N3CCOCC3)CC2=O)cc1 (centres undefined)	21%	-18%	-2%	-20%	17%	-9%	-1%	0.2%
CCOc1ccc(N(CC(=O)Nc2ccc(OC)cc2OC)S(=O)(=O)c2c(C)[nH]c(=O)[nH]c2=O)cc1	x	10%	-2%	-16%[46.1 µM]	17%[46.1 µM]	0%	-2%	x
CC(C)C(c1nnnn1Cc1ccc(F)cc1)N1CCN(c2ccc(O)cc2)CC1 (centres undefined)	x	-10%	0%	u	u	5%	13%	x
CCSc1cc(Cl)nc(N)n1	x	4%	0%	-1%[46.1 µM]	14%	0%	-21%	x
Fc1ccc2c(Cl)c(-c3nnc(-c4cccs4)o3)sc2c1	10µM*	-1%	-8%	16%	-7%	2%	50%[activator]	3.6%
CN(C)CCNC(=O)c1ccc2c(=O)n3c(nc2c1)CCCCC3	3%	x	x	-7%[46.1 µM]	25%[46.1 µM]	x	-18%	-5.1%
COc1ccccc1OCC(=O)Nc1ccc(Cl)cc1	-23%	5%	-8%	14%	u	-15%	64%[activator]	-4.5%
Cc1cc(O)cc(C)c1Cl	6%	-9%[18.4 µM]	x	x	x	x	1%&-13%	-3.6%
Cc1onc(-c2c(Cl)cccc2Cl)c1C(=O)NCc1ccco1	-4%	1%	5%	u	3%	-5%	-25%	-1.8%
Cc1ccc(Cl)cc1NC(=O)[C@@H]1CCC(=O)N1C1OC(=O)c2ccccc21 (some centres undefined)	x	2%	3%	x	x	1%	-16%	x
CCCc1nnc(NC(=O)CCC(=O)NC2CCCc3ccccc32)s1 (centres undefined)	-16%	-8%	-13%	u	2%	5%	10%	1.5%
Cc1cc(NC(=O)CN2C(=O)c3cccnc3Sc3ccccc32)ccc1Br	-9%	x	x	x	u	x	1%	-2.4%
COc1cc(-c2cc(-c3ccccc3)nc(SCC(=O)O)c2C#N)cc(OC)c1OC	x	0%	-1%	-10%	u	1%	-1%	x
O=C(C1CC(=O)N(c2ccc3c(c2)OCCO3)C1)N1CCCC(C(F)(F)F)C1 (centres undefined)	x	2%	-2%	6%	3%	x	-8%	x
COc1ccc(/C=N/n2cnc3c([nH]c4ccc(C)cc43)c2=O)cc1CN1CCCC1	x	-1%	0%	x	x	1%	-17%	x
Cc1cc(C(=O)NCCCN2CCN(C3CCCCC3)CC2)n(-c2ccccc2)n1	5%	0%	13%	-27%&-27%	6%	u	-8%	1.1%
CN1C(=O)c2cccc3c(S(=O)(=O)NCc4ccco4)ccc1c23	-7%	-4%	-2%	0%	-7%	1%	54%[activator]	-1.9%
CC(C)C(C)NC(=O)COc1ccc(Sc2ccc(OCC(=O)NC(C)C(C)C)cc2)cc1 (centres undefined)	4%	0%	10%	u	u	0%	u	-6.5%
Cc1ccccc1CC(=O)Nc1ccc2c(C)cc(=O)oc2c1	x	-5%	-1%	-13%	-2%	16%	11%	x
O=C(Cc1ccc(Cl)cc1)Nc1ncc([N+](=O)[O-])s1	x	-11%	-3%	u	-1%	x	-2%	x
CCCSc1ncc(Cl)c(C(=O)N2CCN(c3ccc(OC)cc3)CC2)n1	-8%	x	x	22%[46.1 µM]	-2%[46.1 µM]	x	-5%	-6.4%
Cc1cc(C)c(NC(=O)COc2ccc3c(C)cc(=O)oc3c2)c(C)c1	9%	x	x	-4%[46.1 µM]	-7%[46.1 µM]	x	9%	-13%
SMILES	Cruzain inh noDet	RE007 growth inh	SARS PLP yeast	MARV entry inh	Lassa entry inh	NS1 function inh	StopGo reporter	Cruzain Triton
CCCc1cc(=O)n2[nH]c(-c3ccc(Cl)cc3)cc2n1	x	12%	-5%	x	x	12%	81%[activator]	x
Nc1nnc(-c2ccc(Cl)cc2Cl)s1	x	14%	-2%	11%[46.1 µM]	u	-6%	60%[activator]	x
CCN(CC)C(=O)CNC(=O)Cc1ccc(Cl)cc1	6%	-2%	14%	11%	-2%	2%	19%	3.3%
Cn1ncc2c(N3CCCCC3)nc(NCCCO)nc21	x	6%	12%	x	x	8%	-1%	x
Cc1cc(C)cc(N(CC(=O)NC2CCCC2)C(=O)CCC(=O)Nc2nccs2)c1	x	6%	-1%	-9%[46.1 µM]	12%[46.1 µM]	14%	5%	x
CCc1cccc(C)c1NC(=O)C1CN(S(=O)(=O)c2ccccc2)CCN1S(=O)(=O)c1ccccc1 (centres undefined)	23%	-2%	-26%	u	-24%	9%	0%	6.5%
O=C(CCNC(=O)c1ccccc1Cl)Nc1cccc(C(F)(F)F)c1	2%	-12%	-19%	u	-16%	-3%	7%	-2.9%
N#CC(C(=O)NC1CCCCC1)c1nc2ccccc2nc1N1CCOCC1 (centres undefined)	1%	x	1%	10%	x	6%	x	2.0%
O=C(Nc1ccccc1C(F)(F)F)C1(S(=O)(=O)c2ccc(Cl)cc2)CC1	-15%	x	x	-1%[46.1 µM]	4%[46.1 µM]	x	5%	-4.0%
Cc1c(NC(=O)c2ccc(S(=O)(=O)N(C)c3ccccc3)cc2)c(=O)n(-c2ccccc2)n1C	x	-9%	2%	u	2%[46.1 µM]	-3%	-28%	x
CC(=O)N1CCN(Cc2nc3cc(NC(=O)COc4ccccc4)ccc3n2C)CC1	x	3%	3%	3%[46.1 µM]	x	x	-20%	x
Cc1ccc2c(c1)c1c3n2CCN(CC(N)=O)C3CCC1 (centres undefined)	x	0%	4%	-3%[46.1 µM]	24%[46.1 µM]	24%	-3%	x
COc1ccc(C(C)(C)C)cc1NC(=S)NCCN1CCOCC1	13%	0%	u	25%	-22%	10%	-19%	5.0%
